Compound activity as filed in PubChem.
YopH PTP inh – YopH (Yersinia) phosphatase inhibition; fluorescence Ex485/Em525; actives 0.16% (n = 140,000); AID 898; inhibition, %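 (about 10 µM by stock and volumes)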;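 active = inhibition of 50% or more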;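 note: controls were vehicle for no effect and minimum signal wells for full effect; inactives centre near -20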
Mtb bLac sens – beta-lactam sensitization of Mtb H37Rv; M. tuberculosis H37Rv growth with meropenem, percent inhibition; hits of this screen are not shown here; inhibition, % at 25 µM; actives 0.27% (n = 330,000); AID 434955;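 active = about 74% or more and at least 40 points above the plate without the antibiotic, then above 30% in a dose series; inconclusive = first-round hits that could not be retested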;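 note: growth measured after seven days incubation then overnight dye step; 0% = bacteria only wells and 100% = bacteria with antibiotic; twin plates without the antibiotic show which effects depend on it; some results filed as inactive read as strong as hits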
RecA splice inh – blocks M. tuberculosis RecA intein splicing. P9WHJ3. cell-free RecA intein splicing, fluorescence. inhibition, %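 (about 9 µM by stock and volumes)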. actives 0.75% (n = 290,000). AID 2221; in the data active = inhibition above about 30%; inconclusive = no clear call, values can overlap the other calls;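 note: 0% = vehicle wells and 100% = reference inhibitor control wells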
Target sequence (P9WHJ3 whole entry, looked up, canonical isoform): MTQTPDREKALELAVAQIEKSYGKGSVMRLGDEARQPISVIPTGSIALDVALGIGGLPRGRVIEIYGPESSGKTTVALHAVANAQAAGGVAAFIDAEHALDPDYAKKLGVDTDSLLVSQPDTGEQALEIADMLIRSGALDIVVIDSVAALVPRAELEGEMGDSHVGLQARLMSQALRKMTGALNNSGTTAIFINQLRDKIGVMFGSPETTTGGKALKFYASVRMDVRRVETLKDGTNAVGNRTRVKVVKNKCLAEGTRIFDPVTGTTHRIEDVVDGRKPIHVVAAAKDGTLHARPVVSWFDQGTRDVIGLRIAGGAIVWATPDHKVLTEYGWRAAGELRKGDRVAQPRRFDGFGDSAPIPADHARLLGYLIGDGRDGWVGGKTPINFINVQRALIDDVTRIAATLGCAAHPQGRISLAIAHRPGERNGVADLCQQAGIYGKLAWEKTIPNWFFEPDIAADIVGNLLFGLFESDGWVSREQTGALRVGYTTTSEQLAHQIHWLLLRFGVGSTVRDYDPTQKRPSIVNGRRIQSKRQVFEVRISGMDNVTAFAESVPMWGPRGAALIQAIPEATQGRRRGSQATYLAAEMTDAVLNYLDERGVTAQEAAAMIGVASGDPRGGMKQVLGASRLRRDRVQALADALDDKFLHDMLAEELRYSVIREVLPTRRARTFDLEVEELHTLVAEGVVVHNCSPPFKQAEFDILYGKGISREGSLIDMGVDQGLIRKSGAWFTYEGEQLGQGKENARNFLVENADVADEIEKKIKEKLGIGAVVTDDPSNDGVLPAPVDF
Mtb growth – M. tuberculosis H37Rv growth inhibitors, H37Rv strain (AID 1626); M. tuberculosis H37Rv growth inhibition; higher % means a stronger effect; one-dose inhibition, % at 10 µM; IC50 in µM for titrated hits; actives 0.95% (n = 220,000);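 active = confirmed in a dose series; inconclusive = inhibition above 80% but not taken into the dose series; inactive = below 80% or under 30% at every dose of the series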;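 note: bacteria incubated seven days before Alamar blue readout; 0% = bacteria only wells and 100% = bacteria with antibiotic wells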
Arbovirus anti – blocks arbovirus infection; arbovirus infection cell-based antiviral screen; inhibition, % at 10 µM; actives 0.37% (n = 200,000);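 active = inhibition from about 30%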;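 note: bluetongue infection of BSR cells; cell survival read as ATP light after 72 h; 0% = infected wells without compound and 100% = uninfected wells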
Arbovirus anti repeat – second read-out of Arbovirus anti, no call of its own (marks repeat the call); inhibition, %; measured here: 10K subset replicate screen; many hits read low in the repeat;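 first of two repeat runs on a subset; 0% = infected and 100% = uninfected wells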
Starred values were filed as active, the others as inactive; u = inconclusive; x = not tested or not shown. A portion of the library; count on the stated rates, not on these rows.

SMILES	YopH PTP inh	Mtb bLac sens	RecA splice inh	Mtb growth	Arbovirus anti	others
COc1ccc(OC)c(NC(=O)CSc2nnc(-c3ccco3)n2-c2ccccc2)c1	7	-8	0.5	3%	-8
CCC(=O)N1CCc2cc(S(=O)(=O)CCC(=O)N3CCN(c4ccc(C(C)=O)cc4)CC3)ccc21	x	-1	0.2	x	x
CC(C)N1CCN(Cc2ccc(Oc3ncccn3)cc2)CC1CCO (centres undefined)	x	-3	-2.4	-3%	6
Cc1cc(C)n2nc(C(=O)N/N=C/c3cccc(Cl)c3)nc2n1	x	-5	-2.4	-10%	x
C=CCn1c(N2C(=O)CC(Cc3ccccc3)C2=O)nc2ccccc21 (centres undefined)	2	16	3.9	-1%	-6
Cc1ccc(S(=O)(=O)N2CCN(C(=O)CCC(=O)NC3CCCc4ccccc43)CC2)cc1 (centres undefined)	-5	2	x	-1%	-3
CCOc1ccc(N2CC(C(=O)NCc3ccc4c(c3)OCO4)CC2=O)cc1 (centres undefined)	x	0	-0.5	x	x
CC(NC(=O)Nc1ccc2c(c1)OCO2)c1ccncc1 (centres undefined)	x	9	0.7	4%	-2
Cc1nnc(SCC(=O)Nc2cccc(S(N)(=O)=O)c2)n1-c1ccccc1	x	4	-4.0	x	x
CN(C)S(=O)(=O)c1ccc(NC(=O)N2CCN(c3ccccc3)CC2)cc1	-48	1	0.1	x	-5
Cn1c(=O)c2c(=O)cc(NNC(=O)CC#N)[nH]c2n(C)c1=O	x	2	-0.3	1%	-3
Cc1cccc(CSc2nc3sc(C)c(C)c3c(=O)n2Cc2ccco2)c1	15	21	4.1	-3%	23
C=CCN1C(=O)/C(=C/c2ccsc2)SC1=S	x	-2	7.9	2%	-3
O=C(c1ccc2c(c1)OCO2)N1CCCc2ccccc21	-54	-2	2.2	-4%	-3
COc1ccc(C(CC(=O)O)NC(=O)COc2ccc(C)cc2)cc1OC (centres undefined)	-30	-8	-4.3	-14%	6
CCOC(=O)CSc1nnc(Cn2c(=O)sc3ccccc32)n1C	-15	u	0.3	-9%	0	Arbovirus anti repeat=2
Cn1cc2c([N+](=O)[O-])cc([N+](=O)[O-])cc2n1	x	x	x	u	-15
COCCNC(=S)N(CCN(C)C)Cc1cc2cc3c(cc2[nH]c1=O)OCO3	x	-3	2.0	x	x
CC(=O)NN1C(=O)c2ccccc2NC1c1cccnc1 (centres undefined)	x	-3	-2.8	5%	5
CC(C)(C)c1ccc(/C=N/NC(=O)Cc2c[nH]c3ccccc23)cc1	-19	-9	-0.2	4%	-37

Looked up by compound from above (six):
SMILES	YopH PTP inh	Mtb bLac sens	RecA splice inh	Mtb growth	Arbovirus anti	others
CC(=O)NN1C(=O)c2ccccc2NC1c1cccnc1 (centres undefined)	x	-3	-2.8	5%	5
O=C(c1ccc2c(c1)OCO2)N1CCCc2ccccc21	-54	-2	2.2	-4%	-3
Cc1cc(C)n2nc(C(=O)N/N=C/c3cccc(Cl)c3)nc2n1	x	-5	-2.4	-10%	x
CCOC(=O)CSc1nnc(Cn2c(=O)sc3ccccc32)n1C	-15	u	0.3	-9%	0	Arbovirus anti repeat=2
Cc1nnc(SCC(=O)Nc2cccc(S(N)(=O)=O)c2)n1-c1ccccc1	x	4	-4.0	x	x
CN(C)S(=O)(=O)c1ccc(NC(=O)N2CCN(c3ccccc3)CC2)cc1	-48	1	0.1	x	-5

Continuation.
SMILES	YopH PTP inh	Mtb bLac sens	RecA splice inh	Mtb growth	Arbovirus anti	others
CCOc1cc(-c2nnc(NC(=O)c3ccco3)o2)cc(OCC)c1OCC	x	89	-0.6	x	x
COc1cccc(NC(=O)Cn2c(=O)n(CC3CCCO3)c(=O)c3ccccc32)c1 (centres undefined)	-34	-1	x	-14%	-1
CCN(CC)S(=O)(=O)c1cc(NC(=O)C(=O)c2c(-c3ccccc3)cc3ccccn23)ccc1C	22	-9	-1.0	-10%	-10
CCc1ccc(NC(=S)Nc2cc(OC)c(NC(=O)C(C)C)cc2OC)cc1	x	49	0.1	21%	5
CCOC(=O)C1(Cc2ccccc2C)CCCN(C(=O)CCn2nccc2C)C1 (centres undefined)	x	11	-1.0	-14%	18
OCc1ccccc1OCCCN1CCC(Cc2ccccc2)CC1	x	6	1.0	x	x
Cc1ccc(N/N=C/c2cccnc2)cc1	-20	u	1.6	u	-34
COc1ccc(C(N)=S)cc1	-20	32	-3.4	33%	4
COc1ccc(CCNC(=O)CSc2nnc(C(C)N(C)C)n2Cc2ccccc2)cc1OC (centres undefined)	x	-9	0.0	-3%	9
S=c1[nH]nc(-c2ccco2)n1/N=C/c1ccccc1	x	-5	-1.8	-5%	x
COC(=O)c1c(C)c[nH]c1C	x	-3	-0.1	x	-1
Cc1cc(C)n(C(=O)c2ccc([N+](=O)[O-])cc2Cl)n1	x	1	0.7	x	x
CCc1oc(C(=O)O)cc1COC	-31	-5	-0.5	-4%	10
O=C(c1cccc(C(F)(F)F)c1)N1CCC(O)(CS(=O)(=O)Cc2ccc(Cl)cc2)CC1	-23	2	0.8	0%	4
Cc1cccc(NS(=O)(=O)c2cccc(C(=O)N3CCN(S(=O)(=O)c4ccccc4)CC3)c2)c1	x	-10	4.2	x	x
O=C(Nc1ccc(Cl)c(Cl)c1)c1csc(-c2ccccc2)n1	-1	8	0.1	x	-32
COc1ccccc1-c1cc(C(F)(F)F)nc(NCc2cccs2)n1	-31	21	6.8	10%	0
CCCCOc1ccc(/C=N/NC(=S)Nc2cccc(C)c2C)cc1	3	3	1.3	-2%	-6
Cc1cc(=O)[nH]c(SCC(=O)OCc2ccccc2)c1C#N	x	3	-1.3	0%	-1
O=S(=O)(NCC(Nc1ccc(Cl)cc1)c1ccccc1)c1ccc(Cl)cc1 (centres undefined)	-7	0	-1.4	42%	-5

Molecules shown so far that have fluorine (2):
SMILES	YopH PTP inh	Mtb bLac sens	RecA splice inh	Mtb growth	Arbovirus anti	others
O=C(c1cccc(C(F)(F)F)c1)N1CCC(O)(CS(=O)(=O)Cc2ccc(Cl)cc2)CC1	-23	2	0.8	0%	4
COc1ccccc1-c1cc(C(F)(F)F)nc(NCc2cccs2)n1	-31	21	6.8	10%	0

The list continues:
SMILES	YopH PTP inh	Mtb bLac sens	RecA splice inh	Mtb growth	Arbovirus anti	others
CNc1nc(C)c(C(C)=O)cc1C#N	-30	5	-0.2	-7%	5
O=C(O)CNC(=O)c1ccc(NS(=O)(=O)c2ccc3ccccc3c2)cc1	x	-6	0.1	x	x
Cc1cc(NC(=O)COC(=O)[C@H](C)NC(=O)c2ccccc2)no1	-35	4	4.0	-11%	1
CC(=O)Nc1ccc(S(=O)(=O)N2CCN(C(=O)N3CCCCCC3)CC2)cc1	-11	0	0.9	3%	-4
CC[n+]1c(C)n(-c2ccccc2)c2ccc(C(=O)OC)cc21	x	10	0.4	-7%	6
COc1cc(/C=C/CN2CCC(CO)(CC3CCCCO3)CC2)ccc1O (centres undefined)	x	6	-0.5	-11%	-19
O=C(CSCc1ccc(Cl)cc1)Nc1ccc(S(=O)(=O)N2CCCCCC2)cc1	-19	-1	0.5	x	-2
O=c1[nH]c(=S)c2ncn(-c3ccccc3)c2[nH]1	x	-6	-0.9	-16%	x
Cc1nn(C)c(C)c1CN(C)C(=O)C1(C)CC1(Br)Br (centres undefined)	-28	2	-1.3	-1%	2
Cc1cc(/C=C2/SC(=S)N(c3cccc(C(F)(F)F)c3)C2=O)c(C)n1-c1cccnc1	-35	50	12	21%	x
COC(=O)CCc1c(C)nc(N)[nH]c1=O	1	-1	6.4	-21%	7
Cc1cccc(C)c1NC(=O)CN1C(=O)S/C(=C\c2cccn2-c2cccc(C(=O)O)c2)C1=O	-10	1	3.2	-14%	3
CCC(c1nnc(SCC(=O)Nc2c(F)cccc2F)n1Cc1ccccc1)N(C)C (centres undefined)	x	5	0.2	x	x
Cc1cc(=O)[nH]c(SCCCOc2ccccc2Cl)n1	-23	-2	-3.1	1%	2
C/C(=N\O)C(=O)NCc1ccccn1	-14	8	0.3	-12%	5
O=C(c1cccs1)N1CCN(c2ccccc2)CC1	x	-13	-2.5	-6%	-2
Cc1ccc(OCCSc2nc3ccccc3n2CC(=O)O)cc1C	x	2	0.5	x	x
CCN(c1ccccc1)S(=O)(=O)c1ccc(Cl)c(NC(=O)CN2CCCCCC2)c1	x	-9	-0.7	2%	x
Nc1n[nH]c(N)c1N=Nc1cccc(F)c1	-14	x	-1.2	1%	-2
O=C(NN(c1ccccc1)c1ccccc1)c1ccc([N+](=O)[O-])o1	x	59	2.4	-4%	-35

Four structures out of the list, ordered by length of the SMILES, highest first.
SMILES	YopH PTP inh	Mtb bLac sens	RecA splice inh	Mtb growth	Arbovirus anti	others
CCN(c1ccccc1)S(=O)(=O)c1ccc(Cl)c(NC(=O)CN2CCCCCC2)c1	x	-9	-0.7	2%	x
O=C(CSCc1ccc(Cl)cc1)Nc1ccc(S(=O)(=O)N2CCCCCC2)cc1	-19	-1	0.5	x	-2
CCC(c1nnc(SCC(=O)Nc2c(F)cccc2F)n1Cc1ccccc1)N(C)C (centres undefined)	x	5	0.2	x	x
O=C(NN(c1ccccc1)c1ccccc1)c1ccc([N+](=O)[O-])o1	x	59	2.4	-4%	-35

(next part)
SMILES	YopH PTP inh	Mtb bLac sens	RecA splice inh	Mtb growth	Arbovirus anti	others
Cc1cc(-c2ccn[nH]2)c(C)s1	x	-1	1.9	4%	-2
COc1ccc(CCNC(=O)CCNS(=O)(=O)c2cccc(Cl)c2)cc1OC	x	5	-9.1	0%	6
CC(=O)N1N=C(c2cccc(NS(C)(=O)=O)c2)CC1c1cccs1 (centres undefined)	x	3	0.7	6%	-2
CCc1ccc(-c2ccc(C(=O)C(F)(F)F)[nH]2)cc1	-16	2	10	-6%	2
C=C(Cl)COc1ccc2c(C)cc(=O)oc2c1	5	37	1.9	4%	-2	Arbovirus anti repeat=-5
COc1ccc(OC)c(NC(=O)C(=O)N/N=C(\C)CC(=O)Nc2ccc(Cl)cn2)c1	x	4	-1.6	x	x
CCc1cc(=O)oc2cc(OCC(=O)N(CC)CC)c(Cl)cc12	x	-6	-0.2	-5%	-2	Arbovirus anti repeat=-5
C#CCNC(=O)C1=C[C@@H](c2ccccc2)C[C@@H](OCc2ccc(CO)cc2)O1	x	-2	4.4	-7%	-1
COc1ccc(-c2csc(NC(=S)NC(=O)c3cc4ccccc4o3)n2)cc1Br	x	-4	-2.0	x	x
Cc1c(C)n2c(SCC(=O)NC3CCCC3)nnc2[nH]c1=O	x	0	-1.4	x	x
Cc1cccc(C)c1-n1nnnc1C(C)(C)N1CCN(N=O)CC1	x	-1	-6.6	0%	x
CC(c1ccccc1)N1C(=O)c2ccc(C(=O)NCc3ccco3)cc2C1=O (centres undefined)	11	x	-1.6	3%	1
O=C(COc1ccc(S(=O)(=O)N2CCCC2)cc1)N1CCCCC1	x	3	2.4	x	x
O=S(=O)(c1cccs1)N1CCC(CO)(Cc2ccc(Cl)cc2)CC1	x	10	3.8	1%	5
CC(C)NC(=O)Cn1c(SCC(=O)c2ccc(F)cc2)nc2ccccc21	-22	7	1.5	-6%	-4
Cc1cc(C)c(N(C(=O)Cn2nnc3ccccc32)C(C(=O)NC(C)(C)C)c2ccsc2)c(C)c1 (centres undefined)	-45	4	5.3	-1%	10
